# Screening data from PubChem.
# Rce1 inhib: yeast Rce1p protease inhibitors, primary screen, biochemical, fluorescence, cell-free homogeneous | CAAX prenyl protease 2 (Saccharomyces cerevisiae (strain ATCC 204508 / S288c)), Q03530 | calls only | yeast membranes, quenched prenylated peptide cleavage fluorescence | AID 2563, 2010 | 290,000 tested, 0.27% active;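 active = fall in fluorescence gain of 50% or more versus controls, with final raw signal at or below 3038400; inconclusive = same 50% fall but final raw signal above 3038400; inactive = fall in fluorescence gain under 50%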;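 note: plate controls were neutral control wells for no effect and wells lacking membranes for full effect; tested at 10 µM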
# Target sequence (Q03530 whole entry, looked up): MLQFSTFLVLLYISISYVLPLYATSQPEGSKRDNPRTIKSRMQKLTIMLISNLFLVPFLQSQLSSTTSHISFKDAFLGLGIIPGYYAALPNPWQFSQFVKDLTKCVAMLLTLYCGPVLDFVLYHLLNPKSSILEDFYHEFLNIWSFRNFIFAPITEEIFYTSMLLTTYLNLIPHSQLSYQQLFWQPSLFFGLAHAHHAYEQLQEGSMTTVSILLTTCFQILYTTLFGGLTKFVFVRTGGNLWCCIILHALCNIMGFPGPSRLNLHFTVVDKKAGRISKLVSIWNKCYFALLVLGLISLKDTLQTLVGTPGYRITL
# HIV Env fusion: inhibitors of HIV-1 Env-driven cell-cell fusion, primary screen, HeLa-JRFL effector, CEM21 target cells, luciferase | inhibition, % at 12.3 µM | 360,000 tested, 1.1% active | AID 651610, 2012;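 active = mean replicate inhibition score of at least 50 and every replicate individually at or above 50; inconclusive = only one of the two criteria met; inactive = mean below 50 and not all replicates reaching 50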;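 note: 0% = plate neutral controls and 100% = maraviroc near 300 nM; one replicate is shown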
# UUG fidelity: modulators of yeast start codon fidelity, primary screen, whole organism, S. cerevisiae, single point, plate reader; AID 602363, 2012; 350,000 tested, 0.13% active; S. cerevisiae UUG-firefly luciferase reporter, luminescence/redox ratio; activity score, % at 18.7 µM;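 active = replicate mean at a twofold rise or more, about +100% in these data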;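 note: firefly luciferase made from a UUG start codon reports start codon fidelity; reporter light over untreated wells divided by growth signal over untreated wells; some hits fall short of that in this replicate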
# CSC inhib: cancer stem cell viability inhibitors, primary screen, luminescence; AID 2717, 2010; cancer stem cell-like cells viability; inhibition, % at 7.5 µM; 300,000 tested, 1.1% active;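 active = mean at 75% or more and at least half the replicates too; inconclusive = mean and replicates disagree; tested in HMLE shEcad cells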;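 note: 0% = median of negative and 100% = median of positive control wells; the first replicate is given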
# MT1-MMP act inh: blockers of MT1-MMP proenzyme processing, primary screen, HT1080 RFP-PRO-GFP cells, GFP/RFP fluorescence | Matrix metalloproteinase-14 (Homo sapiens), P50281 | GFP/RFP ratio fluorescence, overnight; percent of plate control window, DMSO zero | GFP/RFP ratio change, % at 20 µM | 360,000 tested, 0.061% active;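 active = GFP/RFP ratio change of at least 30% with cell ATP level not reduced by more than half and red fluorescence within 50% of control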; note: strong numbers were not always called active
#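 Assay system – RFP-PRO-GFP reporter HT1080 cells · Compound dosing – single dose of 20 µM compound, 1% DMSO final · Incubation – overnight compound exposure at 37 °C · Measure – GFP/RFP fluorescence ratio · Benchmarks – DMSO wells and RFP-L50D-GFP cells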
# eIF4H FP inh: human eIF4H binding inhibitors, primary screen, translation initiation inhibitor project, biochemical, uHTS, fluorescence polarization | AID 2012, 2009 | inhibition, % at 35 µM | 290,000 tested, 0.94% active | eIF4H fluorescence polarization binding assay | Eukaryotic translation initiation factor 4H (Homo sapiens), Q15056;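 active = 50% or more with normal probe brightness, or confirmed in later tests; inconclusive = above 50% with abnormal brightness, or retests that disagree; inactive = below 50% or failed in later tests; about a fifth of its hits are not listed in these tables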;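 note: calls also rest on retests at 20 µM and on dose response follow-up; 0% = protein and probe with vehicle and 100% = probe without protein; strong numbers were not always called active; many hits fall short of the cut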
# PABP polyA inh: PABP poly(A) RNA binding inhibitors, primary screen, biochemical, fluorescence polarization, uHTS. inhibition, % at 35 µM. 290,000 tested, 1% active. AID 2014, 2009;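 active = 50% or more with normal probe brightness, or confirmed in later tests; inconclusive = above 50% with abnormal brightness, or retests that disagree; inactive = below 50% or failed in later tests; about a fifth of its hits are not listed in these tables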;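 note: calls also rest on retests at 20 µM and on dose response follow-up; controls were probe without protein and protein plus probe with vehicle; some compounds called inactive have numbers as strong as hits; many hits fall short of the cut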
# eIF4H FP inh retest: further read-out of eIF4H FP inh, marked with its call; inhibition, %; compound at 20 µM; confirmation average;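 mean of two retest wells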
# PABP polyA inh retest: further read-out of PABP polyA inh, marked with its call; inhibition, %; compound at 20 µM; confirmation repeats;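 mean of two retest wells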
# MT1-MMP act inh RFP: further read-out of MT1-MMP act inh, marked with its call; RFP signal change, %; measured here: RFP expression control read;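 0 = vehicle wells; hits needed this value within 50% of zero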
# Starred values were filed as active, the others as inactive; i = inactive; u = inconclusive; x = no result given. Some of the compounds tested; count on the stated rates, not on these rows.
SMILES,Rce1 inhib,HIV Env fusion,UUG fidelity,CSC inhib,MT1-MMP act inh,MT1-MMP act inh RFP,eIF4H FP inh,PABP polyA inh,others
O=C(NC1CCCC1)c1cc(-c2ccc(Cl)cc2Cl)on1,i,-66,-3,x,0,2,-12,-4,
CCN(C1CCS(=O)(=O)C1)S(=O)(=O)c1ccc(OC)c(OC)c1 (stereo not given),i,-6,x,-5,-1,0,x,x,
CCN(CC(=O)NCc1ccco1)S(=O)(=O)c1ccc(OC)cc1,i,-6,-12,-8,-4,-1,x,x,
O=C(O)c1cccc(N/N=C/C2=C(Cl)c3cc(Cl)ccc3SC2)c1,i,-118,x,x,1,1,15,27,
Cc1nnc(N2C(=O)c3cccc4c([N+](=O)[O-])ccc(c34)C2=O)s1,i,-90,-21,51,-131,-5,-6,12,
O=C(OCC(=O)N1CCCC1=O)c1ccc(F)c(S(=O)(=O)N2CCOCC2)c1,i,-2,-16,-1,3,2,4,-3,
COc1ccc(NC(=O)CSc2nc(=O)n(CCN3CCOCC3)c3c2CCCC3)c(OC)c1,i,-1,3,7,0,-1,x,x,
COc1ccc(C(=O)N/N=C/c2c(C)[nH]c(=O)[nH]c2=O)cc1,i,-5,-10,-3,-2,2,-10,0,
COc1ccc(OCC(=O)NCCC2=CCCCC2)c([N+](=O)[O-])c1,i,-9,x,-4,3,1,9,4,
CC(C)CC(=O)Nc1nnc(S(=O)(=O)N2c3ccccc3CC2C)s1 (stereo not given),i,-1,-19,-19,0,-1,-14,-6,
CCCc1ccc(C(=O)[C@@H]2[C@@H](C(C)=O)N3c4ccc(F)cc4C=C[C@@H]3[C@@]23C(=O)Nc2ccccc23)cc1,i,17,-21,2,-19,-1,4,-8,
Cc1ccccc1NS(=O)(=O)c1ccc(NC(=O)c2ccco2)cc1,i,x,-13,-14,3,-1,8,15,
COc1cc2[nH]c(=O)n(Cc3ccc(C(=O)N4CCC(N5CCCCC5)CC4)cc3)c(=O)c2cc1OC,i,x,7,8,-5,2,-9,-18,
CCCN(CCC)C(=O)CSc1nc2ccsc2c(=O)n1NC(=O)c1ccccc1,i,-15,-2,-1,-6,1,-10,1,
COc1ccccc1N1CCN(C(=O)c2cc(=O)c3cc(C)ccc3o2)CC1,i,-53,-1,37,-2,-6,-8,-10,
CCCCOc1ccc(C(=O)NCC2(c3ccccc3)CCOCC2)cc1,i,-10,18,4,-5,-10,-4,0,
C/C(=N/NC(=O)c1ccoc1C)c1cccc(NC(=O)C(F)(F)F)c1,i,2,x,-7,0,3,4,9,
COc1ccc2c(CC(=O)NNC(=O)c3ccccc3F)coc2c1,x,-26,-14,-7,-4,1,x,x,
COc1ccc(OC)c(Nc2ccc(C(=O)O)cc2[N+](=O)[O-])c1,i,-67,x,x,6,3,12,-10,
O=S(=O)(c1ccccc1)N1N=C(c2cccs2)CC1c1ccc(F)cc1 (stereo not given),i,x,-11,15,-4,-10,6,1,
O=C(NCCN1C(=O)S/C(=C/c2ccccc2)C1=O)C1CC(=O)N(Cc2ccccc2)C1 (stereo not given),x,x,-4,-18,-6,-1,x,x,
Cc1ccc(CN2CC(C(=O)Nc3cc(C)ccn3)CC2=O)cc1 (stereo not given),i,-26,-14,-1,-5,-1,x,x,
COC(=O)N1[C@H](Cc2ccccc2)C=C[C@]1(C)C(=O)NCc1ccccn1,i,x,-19,-8,0,4,3,-2,
COC(=O)C(CCSC)NC(=O)Cn1ncc2c(=O)oc3ccc(C)cc3c21 (stereo not given),i,22,-11,3,1,5,5,1,
COc1cc(/C=C(/C#N)C(=O)Nc2ccc(Cl)cc2)ccc1Oc1nc(Cl)ncc1F,i,-8,x,4,1,-4,3,4,
CC(C)(C)Cc1nc(-c2ccc(Cl)cc2)no1,i,-47,-16,-10,3,1,-4,8,
O=C(Nc1ccc(-c2nc3ccccc3o2)cc1)c1cccnc1,i,-93,-7,-10,-4,-8,-5,-5,
Cc1ccc(OCC(=O)N2N=C(c3ccc(Cl)cc3)CC2c2ccco2)c([N+](=O)[O-])n1 (stereo not given),i,13,x,-4,-3,-4,5,-9,
Nc1nc(-n2cnnc2)nn1-c1ccccc1,i,x,-31,-2,12,-2,-3,5,
O=C(COc1cc(O)c2c(=O)c3ccccc3oc2c1)OCc1ccccc1,i,2,1,-13,x,x,-1,-3,
O=C(COc1ccccc1)Nc1cc(S(=O)(=O)N2CCOCC2)ccc1N1CCCC1,x,-1,12,x,-2,1,x,x,
COC(=O)Cn1c2ccccc2c2nc3ccccc3nc21,i,-11,-6,-14,-1,1,-3,0,
CCOC(=O)C1=C(C)N=C2SC(C)C(=O)N2C1c1cccc(F)c1 (stereo not given),i,-90,4,9,-10,-4,-1,2,
COc1cc(OC)cc(C(=O)NC(C(=O)O)C23CC4CC(CC(C4)C2)C3)c1 (stereo not given),i,34,x,-8,-1,3,5,3,
CC1(C)CC(=O)C/C(=N/Nc2nc3ccccc3s2)C1,i,-54,x,x,-54,-36,6,18,
COc1ccc(C2=NOC(Cn3nc(-c4ccccc4)cc3C(=O)O)C2)cc1 (stereo not given),x,-2,-8,-25,3,2,x,x,
COc1cccc(NC(=O)CN(C)C(=O)CCNC(=O)c2ccccc2OC)c1,x,-7,-21,x,-4,0,x,x,
COc1ccc(OCc2cc(C(=O)N3CCCCCC3)no2)c(Cl)c1,x,-29,-6,20,0,0,-17,-4,
CC(=O)c1ccc(OCc2cc(C(=O)N(C)Cc3cc(C)no3)no2)cc1,i,-19,-9,-2,-6,-1,-6,3,
O=C(c1nn(Cc2ccccc2)c(=O)c2ccccc12)N1CCN(C/C=C/c2ccccc2)CC1,i,x,-6,6,0,-7,-8,-1,
COc1ccc(-c2nn(-c3ccccc3)cc2C(=O)O)cc1OC,i,x,-9,-5,0,3,-1,-12,
O=C(CN1C(=O)NC(Cc2c[nH]c3ccccc23)C1=O)Nc1cccc(S(=O)(=O)N2CCCC2)c1 (stereo not given),i,8,x,-3,2,-2,-6,-11,
COc1cc(C(=O)N2CCN(C)CC2)cc(OC)c1OC,i,2,-8,-6,1,3,-7,5,
COC(=O)Nc1ccc(S(=O)(=O)N(C)C)cc1,i,-44,-5,-6,1,6,0,-15,
CCCOc1ccc(C2C(C(=O)c3ccco3)=C(O)C(=O)N2CCCn2ccnc2)cc1 (stereo not given),i,10,-14,-11,-3,4,-6,10,
O=C(Nc1cccc(Cl)c1)c1nc[nH]c1C(=O)NCc1ccccc1,x,-13,-11,20,0,1,x,x,
CCOC(=O)COc1ccc(S(=O)(=O)N2CCN(c3ccc(OC)cc3)CC2)cc1,i,4,x,-11,3,5,-4,1,
COc1cc(C(=O)Nc2ccc(F)cc2Cl)ccc1OCC(=O)N1CCOCC1,i,-18,-16,-12,1,3,x,x,
Cc1ccc(Oc2ccc(S(=O)(=O)N3CCOCC3)cc2C(N)=O)c(-n2nc3ccccc3n2)c1,i,x,2,48,6,-6,10,9,
COc1ccc(C2C(C(=O)c3ccco3)=C(O)C(=O)N2CC2CCCO2)c(OC)c1 (stereo not given),i,-1,-14,7,-3,0,1,14,
CCOc1ccc(NC(=O)CN(C)C(=O)C2CC(=O)N(CCc3ccccc3)C2)cc1OCC (stereo not given),i,1,-2,-8,0,0,x,x,
O=C(CSc1nnc(-c2ccc3c(c2)OCO3)o1)Nc1ncc(C(F)(F)F)cc1Cl,i,12,11,u,-4,7,2,-1,
CCCc1ccc(-c2csc(NC(=O)C3=COCCO3)n2)cc1,x,-17,-20,30,1,-8,x,x,
O=C(NCCNC(=O)c1ccco1)c1ccc(Cl)c(Cl)c1,i,-1,-15,x,0,-1,-6,5,
CCCCCC(=O)Nc1cc(S(=O)(=O)N2CCCCC2)ccc1N1CCOCC1,i,0,2,-8,0,-1,-6,0,
COCCN(C(=O)c1cc(S(=O)(=O)N2CCCCC2)ccc1Cl)c1c(N)n(CC(C)C)c(=O)[nH]c1=O,x,7,-3,x,-3,4,x,x,
COc1ccc(Cl)cc1NC(=O)CC(C)=O,i,x,-5,-10,0,3,5,-3,
CCOc1cccc(C(=O)Nc2cc(C)ccc2NC(=O)c2ccco2)c1,i,x,4,x,-6,-3,81,5,eIF4H FP inh retest=-7;PABP polyA inh retest=9
Cc1nn(CC(=O)c2ccc(Cl)s2)c(C)c1[N+](=O)[O-],i,13,-1,3,-4,2,-11,6,
O=c1[nH]c(C(F)(F)F)nc2c1nc1n2CCC1,x,-4,3,x,-2,-2,x,x,

# Four structures already listed, ordered by number of heavy atoms, smallest number first.
SMILES,Rce1 inhib,HIV Env fusion,UUG fidelity,CSC inhib,MT1-MMP act inh,MT1-MMP act inh RFP,eIF4H FP inh,PABP polyA inh,others
O=C(Nc1cccc(Cl)c1)c1nc[nH]c1C(=O)NCc1ccccc1,x,-13,-11,20,0,1,x,x,
COc1ccccc1N1CCN(C(=O)c2cc(=O)c3cc(C)ccc3o2)CC1,i,-53,-1,37,-2,-6,-8,-10,
CCCN(CCC)C(=O)CSc1nc2ccsc2c(=O)n1NC(=O)c1ccccc1,i,-15,-2,-1,-6,1,-10,1,
Cc1ccc(OCC(=O)N2N=C(c3ccc(Cl)cc3)CC2c2ccco2)c([N+](=O)[O-])n1 (stereo not given),i,13,x,-4,-3,-4,5,-9,

# Remaining list, next part:
SMILES,Rce1 inhib,HIV Env fusion,UUG fidelity,CSC inhib,MT1-MMP act inh,MT1-MMP act inh RFP,eIF4H FP inh,PABP polyA inh,others
CCOC(=O)[C@H]1[C@H]2COc3ccc(C)cc3[C@@H]2N2C(=O)CN(Cc3ccc(OC)cc3)C(=O)[C@@]12C,x,-64,2,-13,-4,0,x,x,
O=C(O)CCSc1nnc(COc2cccc3ccccc23)n1-c1cccc(Cl)c1,i,-13,-8,2,0,0,-3,-9,
COc1ccc(CCN(C)C2CC(=O)N(c3ccccc3)C2=O)cc1OC (stereo not given),i,4,-10,-5,-1,3,-10,10,
CC1CCCC(NC(=O)C2CC(=O)N(Cc3ccccc3)C2)C1C (stereo not given),i,x,-2,-23,-1,3,7,15,
O=C(Nc1ccc(F)cc1)Nc1ccccc1N1CCCCC1,i,19,0,38,-6,-30,-14,6,
CC12CC3(C)CC(C)(C1)CC(C(=O)NCc1cccnc1)(C2)C3,i,24,-8,3,-3,-1,-2,13,
CCN(CC)c1ccc2cc(-c3nc4ccccc4[nH]3)c(=O)oc2c1,i,x,-33,57,-409,-3,u,0,
O=C(C1CCC(CNS(=O)(=O)c2cccc3nsnc23)CC1)N1CCN(c2ccccn2)CC1 (stereo not given),i,2,x,2,-1,-9,4,-6,
COc1ccc(NC(=O)C2(C)CCN2Cc2ccc(OC)c3ccccc23)cc1OC (stereo not given),x,15,26,x,7,0,x,x,
CCOc1ccc(NC(=O)CN2C(=O)CSC2=O)cc1,i,-3,x,4,1,4,-7,0,
CSc1nc2ccc(NS(=O)(=O)c3c(Cl)cccc3Cl)cc2s1,i,13,-12,27,-3,6,2,5,
Cc1ccc(C2(C)NC(=O)N(CC(=O)NCc3cccs3)C2=O)cc1 (stereo not given),i,6,x,-7,0,7,-6,29,
